Cruzain noTriton: inhibitors of Trypanosoma cruzi cruzain without detergent. 200,000 compounds, 2.3% hits. AID 1476. Potency, µM, without a hit: max response, negative = inhibition, most hits filed as inhibitors. purified cruzain, Z-FR-AMC fluorescence, no detergent. P25779; active = well fitted curve in the direction sought with a large enough effect; inconclusive = small, poorly fitted or top-dose-only effect, or another doubt; inactive = no such curve, though single readings can be large; an effect the other way counts as inactive or inconclusive;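 note: plate controls were enzyme without inhibitor for no effect and buffer without enzyme for full effect; nearly all actives have a fitted effect of over 40% in size; top concentration of the series not given in the record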
Target sequence (P25779 123-467 limits assumed): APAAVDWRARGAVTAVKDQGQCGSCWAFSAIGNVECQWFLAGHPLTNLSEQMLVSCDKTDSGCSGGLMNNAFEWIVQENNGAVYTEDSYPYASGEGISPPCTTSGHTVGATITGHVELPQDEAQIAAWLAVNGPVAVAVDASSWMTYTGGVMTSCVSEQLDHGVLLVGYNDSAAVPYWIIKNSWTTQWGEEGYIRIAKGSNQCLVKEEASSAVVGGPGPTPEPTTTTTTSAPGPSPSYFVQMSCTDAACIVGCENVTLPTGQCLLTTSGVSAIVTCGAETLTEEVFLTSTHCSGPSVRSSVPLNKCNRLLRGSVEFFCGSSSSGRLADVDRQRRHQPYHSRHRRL
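Purified cruzain at 1.5 nM, pre-incubated 15 min with compound at room temperature in 100 mM sodium acetate pH 5.5, 5 mM DTT, 0.00005% Triton X-100. Reaction started with 2 uM Z-FR-AMC; AMC fluorescence increase over 60 s gives rate.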
SARS PLpro yeast: SARS-CoV PLP inhibition in yeast | S. cerevisiae expressing SARS-CoV PLpro, growth rescue; control for the full effect not named in the record | Potency, µM (series often up to 32.9 µM), without a hit: top-dose activity, positive = growth rescue | 330,000 compounds, 0.19% hits | AID 485353; note: 0% is about no effect; nearly all actives have a fitted effect of over 55% in size; growth read by luminescence after 48 h
MARV entry inh: inhibitors of Marburg virus binding or cell entry | Potency, µM (titrated, usually from 37.8 µM), inactives show top-dose activity change, negative = inhibition, hits mostly inhibitors | AID 540276 | Marburg virus pseudotyped entry inhibition, cell reporter; control for the full effect not named in the record; about a third of the inactives were read at about 46 µM | 300,000 compounds, 1.8% hits; active = well fitted inhibition curve with a large enough effect; inconclusive = small, poorly fitted or top-dose-only effect, or effect the other way; inactive = flat fitted curve, though single readings scatter; tested in HEK293 cells; about a fifth of its hits are not listed in these tables; note: % is set by controls: 0 for no effect and ±100 for the full control effect; luciferase read-out
Cruzain Triton: inhibitors of Trypanosoma cruzi cruzain with detergent; 200,000 compounds, 0.43% hits; P25779; purified cruzain, Z-FR-AMC fluorescence, 0.01% Triton; Potency, µM, for the others: max response, negative = inhibition, hits mostly inhibitors; active = well fitted curve in the direction sought with a large enough effect; inconclusive = small, poorly fitted or top-dose-only effect, or another doubt; inactive = no such curve, though single readings can be large; an effect the other way counts as inactive or inconclusive;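 note: plate controls were neutral wells for no effect and buffer without enzyme for full effect; nearly all actives have a fitted effect of over 40% in size; top concentration of the series not given in the record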
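Compounds were screened in titration against cruzain (1.5 nM) with 0.01% Triton X-100 to counter colloidal aggregation. Activity was the AMC fluorescence increase over 60 s after adding 2 uM Z-FR-AMC at pH 5.5.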
NS1 function inh: inhibitors of influenza NS1 protein function | 270,000 compounds, 0.4% hits | Potency, µM (doses to about 46.1 µM), for the others: at the top dose activity, positive = more growth | S. cerevisiae slowed by influenza A NS1, growth recovery by OD600 | AID 2326; note: actives are rising curves; nearly all actives have a fitted effect of over 50% in size
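Recovery from NS1-induced slow growth read by OD600 in budding yeast switched to galactose assay medium (pH 6.0, -URA) at 1:100 dilution. Compound 23 nl per well; the matching strain lacking NS1 serves as control.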
2A StopGo: FMDV 2A StopGo reporter, luciferase signal; human cells with a luciferase reporter of 2A StopGo recoding; control for the full effect not named in the record; Potency, µM (doses to about 57.9 µM), without a hit: at the top dose signal change, negative = less light; 410,000 compounds, 1.2% hits; AID 1159524; active = well fitted falling curve with a large enough effect; inconclusive = small, poorly fitted or top-dose-only effect; inactive = no such curve, though single readings can be large or run the other way; tested in HEK293T cells; note: % is set by controls: 0 for no effect and ±100 for the full control effect; nearly all actives have a fitted effect of over 45% in size; luciferase light after 4 h
Lassa entry inh: inhibitors of Lassa virus binding or cell entry. Potency, µM (top dose mostly 37.9 µM), inactives show at the highest dose activity change, negative = inhibition, most hits filed as inhibitors. 300,000 compounds, 1.2% hits. Lassa virus pseudotype entry inhibition, cell reporter; control for the full effect not named in the record; active means well fitted inhibition curve with a large enough effect; inconclusive means small, poorly fitted or top-dose-only effect, or effect the other way; inactive means flat fitted curve, though single readings scatter; tested in HEK293 cells; note: % is set by controls: 0 for no effect and ±100 for the full control effect; nearly all actives have a fitted effect of over 50% in size; luciferase read-out
RE007 growth inh: less growth of the S. pombe RE007 Vpr strain. S. pombe RE007 Vpr strain, BacTiter-Glo ATP luminescence, 24 h; control for the full effect not named in the record. Potency, µM (highest dose often 92.2 µM), inactives show top-dose activity change, negative = less growth. 360,000 compounds, 0.21% hits. AID 651644; active = well fitted falling curve with a large enough effect; inconclusive = small, poorly fitted or top-dose-only effect; inactive = no such curve, though single readings can be large or run the other way;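 note: % is set by controls: 0 for no effect and ±100 for the full control effect; nearly all actives have a fitted effect of over 50% in size; the assay follows cell death caused by Vpr and the record does not say whether a fall means rescue or toxicity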
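Fission yeast RE007 carrying one integrated HIV-1 vpr copy, seeded at OD 0.01 in PMG+AL medium with 23 nL pinned compound. Grown 24 h at 30 degrees; viability read by BacTiter-Glo luminescence after 5 min.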
* = called active by the depositor; ? = inconclusive; / = no result given; & = joins results of further samples; [ ] = dose if it differs, or a comment. Unless noted, calls come from the whole dose curve; as a rule, active means well fitted rising curve with a large enough effect; inconclusive means small, poorly fitted or top-dose-only effect; inactive means no such curve, though single readings can be large or run the other way. Potency is the fitted concentration of half-maximal effect. Outcome played no part in choosing rows; 4.7% or so of the library scored in one or more.

Below each SMILES – Cruzain noTriton	SARS PLpro yeast	MARV entry inh	Cruzain Triton	NS1 function inh	2A StopGo	Lassa entry inh	RE007 growth inh
O=C(NCC1CCN(S(=O)(=O)c2ccccc2)CC1)Nc1ccc(F)cc1F
 : /	1.3%	-3.5%[46.1 µM]	/	-4.6%	-19.6%	-8.6%[46.1 µM]	2.8%
COc1ccc(-c2c(C)n([O-])c(C)c(-c3ccccc3)[n+]2=O)cc1OC
 : -6.6%	4.1%	20.7%	2.1%	-3.9%	13.2%	16.4%	-8.8%
CCOC(=O)c1ccc(NC(=O)Cn2nc(C)c3ccccc3c2=O)cc1
 : /	0.3%	/	/	-7.0%	-5.7%	/	23.6%
COc1ccccc1NS(=O)(=O)CC12CCC(CC1=O)C2(C)C (stereo not given)
 : 2.4%	7.4%	-0.7%	1.8%	-8.9%	16.8%	2.7%	17.8%
Nc1c(C(=O)Nc2ccccc2Cl)c2ccccn2c1C(=O)c1ccccc1
 : -6.2%	/	-0.8%[46.1 µM]	-2.5%	/	-9.6%	29.7%[46.1 µM]	/
CCOc1ccc(C2CC(=O)c3c([nH]c(C(=O)OC4CCCCCC4)c3C)C2)cc1 (stereo not given)
 : 1.2%	/	3.3%[46.1 µM]	-1.0%	/	-45.8%	13.0%[46.1 µM]	/
CCOC(=O)N1CCN(C(=S)Nc2cccc(C)c2)CC1
 : 1.8%	-14.5%	2.0%	5.3%	14.5%	-13.6%	2.9%	0.8%
CC(=O)Nc1csc2ccccc12
 : /	-0.3%	6.8%	/	-2.4%	12.6%	0.1%	-10.9%
O=C(NCc1ccc(Cl)cc1Cl)c1ccccn1
 : -2.3%	-14.9%	6.0%	3.1%	-23.9%	-10.6%	7.2%	-0.8%
CCc1ccc(OCC(=O)NC(NC(=S)Nc2ccccc2)C(Cl)(Cl)Cl)cc1 (stereo not given)
 : 0.5%	-9.3%	?	-5.6%	2.5%	0.0%	?	-7.6%
O=C(CCc1ccccc1)NNC(=O)c1ccccc1Cl
 : /	4.2%	?	/	10.4%	4.2%	19.7%[46.1 µM]	-4.5%
CCCCC(CCc1ccccn1)C(=O)c1ccccc1 (stereo not given)
 : /	/	-10.9%	/	/	14.0%	?	-10.7%
Cc1ccc(OC(C)C)c(CN(CCO)CCO)c1
 : 8.3%	5.4%	0.3%	1.8%	1.6%	-4.4%	1.9%	4.1%
COc1cc(Cl)c(C)cc1Nc1nc2ccccc2n2cnnc12
 : 2.5%	/	?	1.9%	/	18.9%	/	/
CC(=O)O[C@]1(C(C)=O)CC[C@H]2[C@@H]3C=CC4=CC(=O)C=C[C@]4(C)[C@H]3CC[C@@]21C
 : /	0.9%	?	/	-2.7%	?	?	-2.3%
Cc1ccc(-n2ncc3c(NCC(C)C)ncnc32)c(C)c1
 : 6.5%	/	/	-1.1%	/	8.6%	2.0%[46.1 µM]	/
Cc1cccc(NS(=O)(=O)c2ccc(NS(=O)(=O)c3cccs3)cc2)c1
 : /	-4.2%	-3.8%[46.1 µM]	/	7.8%	1.1%	-29.2%	5.9%
O=C(C1CCCN(Cc2ccccc2)C1)N1CCc2ccccc2C1 (stereo not given)
 : 6.8%	5.5%	-5.7%	3.0%	-4.7%	-27.8%	-4.3%	-8.3%
CCCCc1ccc(NC(=O)Cn2c(=O)c(N3CCCCC3)c(N)n(C)c2=O)cc1
 : /	-2.7%	?	/	/	5.8%	-9.6%	-12.0%
COc1ccc(/C=N/NC(=O)CC(=O)NCc2cccnc2)cc1
 : 0.6%	-2.2%	3.9%	-0.1%	-0.7%	-12.2%	-14.2%	0.5%
O=C1c2ccccc2C(=O)N1CN(C(=O)COc1ccccc1)c1ccc(F)cc1
 : 12.2%	-6.0%	?	-3.2%	-29.4%	10.1%	-8.4%	4.2%
CCCCOC1CC(c2ccc(OCc3ccc(OC)cc3)c(OC)c2)N(C)O1 (stereo not given)
 : /	-11.9%	?	/	/	-14.1%	?	-14.7%
CC(C)CCSc1ncnc2c1oc1nc3c(cc12)COC(C)(C)C3
 : ?	-3.3%	1.9%	-2.2%	0.3%	11.8%	-34.0%	1.2%
COc1cc2ccccc2cc1C(=O)Nc1ccc(N2CCOCC2)cc1
 : /	-0.1%	19.5%[46.1 µM]	/	0.9%	20.3%	/	-6.6%
CC(O)C(C)OC(=O)[C@@H]1C[C@@H]2c3cccc4c3c(cn4C(C)C)C[C@H]2N(C)C1 (stereo not given in full)
 : -6.4%	/	?	-3.8%	3.8%	?	/	/
COC(=O)c1ccc(-c2noc(CN(Cc3ccccn3)CC3CCCO3)n2)cc1 (stereo not given)
 : /	1.9%	/	/	-8.4%	-7.4%	/	-18.4%
COc1cccc(Nc2nc3cc(C)ccc3nc2NS(=O)(=O)c2ccc(Cl)cc2)c1
 : -7.1%	/	/	1.1%	/	0.0%	?	/
Cc1noc(C)c1COC(=O)c1cc(C)n(-c2ccccc2)c1C
 : -8.6%	-22.5%	-28.9%	-6.8%	-56.9%	-3.7%	-50.6%	-4.7%
O=S(=O)(NCc1csc(-c2ccccc2)n1)c1cccc(F)c1
 : -5.3%	/	0.2%[46.1 µM]	-10.7%	/	14.3%	1.0%[46.1 µM]	/
O=c1c2ccccc2nc(SCC2CCCCO2)n1-c1ccccc1 (stereo not given)
 : -21.3%	6.1%	-1.3%	-6.4%	-6.1%	-28.4%	?	1.0%

Below each SMILES – Cruzain noTriton	SARS PLpro yeast	MARV entry inh	Cruzain Triton	NS1 function inh	2A StopGo	Lassa entry inh	RE007 growth inh
CCOC(=O)c1ccccc1NC(=O)COC(=O)c1cc([N+](=O)[O-])ccc1N1CCOCC1
 : /	-1.3%	?	/	/	?	?	0.8%
Cc1ccc(S(=O)(=O)N2CCCCC2)cc1NC(=O)COC(=O)c1ccc2c(c1)OCO2
 : -1.9%	-5.8%	-10.8%	-6.5%	13.6%	-8.3%	7.8%	17.7%
COc1cc(OC)cc(C(=O)Nc2nnc(SCC(=O)NCC3CCCO3)s2)c1 (stereo not given)
 : /	-2.0%	29.5%	/	15.6%	0.0%	14.1%	0.1%
CN(NC1CC(=O)N(c2ccccc2)C1=O)c1ccccc1 (stereo not given)
 : -30.0%	-5.7%	-0.9%	-5.9%	-0.4%	24.3%	16.8%	-11.2%
COc1ccc(/C=C(\NC(=O)c2ccc(OC)cc2)C(=O)Nc2ccc(C(=O)O)cc2)cc1
 : /	-0.4%	10.0%[46.1 µM]	/	1.4%	-7.7%	3.4%[46.1 µM]	-10.6%
CN1CCN(C(=O)C2=C[C@@H](c3coc4ccccc4c3=O)C[C@@H](OCc3ccc(CO)cc3)O2)CC1
 : /	-0.2%	/	/	1.1%	-10.1%	/	3.9%
CCOCCn1ccc2c(OCC(=O)NCc3ccc(C)cc3)cccc2c1=O
 : 4.2%	/	/	0.5%	/	-9.2%	/	/
CCN1CCN(c2ncnc3c2cnn3-c2ccc(C)cc2)CC1
 : 6.4%	/	/	0.3%	/	-0.2%	?	/
C/C=C/c1ccc(OCCCCOc2ccccc2C(C)=O)c(OC)c1
 : 2.7%	-7.6%	-15.7%	-6.0%	5.2%	0.0%	-17.4%	14.6%
CCn1c(/C=C/Nc2ccccc2)[n+](CC)c2cc(Cl)c(Cl)cc21
 : -1.9%	19.5%	12.6µM*	-8.1%	-4.7%	-18.3%	?	-13.1%
COc1cc(-c2nc(CN3CCN(c4ncccn4)CC3)c(C)o2)ccc1F
 : /	-1.4%	-2.7%[14.2 µM]	/	-4.3%	0.0%	9.3%	7.9%
CC1CCN(C(=O)CCN2C(=O)/C(=C/c3cccs3)SC2=S)CC1
 : /	1.4%	?	/	18.4%	-11.3%	5.62µM*	-8.3%
Cn1ncc2c(NNC(=O)c3ccc(O)cc3)ncnc21
 : /	1.1%	5.7%	/	/	-11.4%	-1.0%	16.2%
Cc1ccc2c(c1)N(C(=O)Nc1cccc3c1CCCC3)CC(C)O2 (stereo not given)
 : 5.4%	/	/	-1.5%	/	-20.7%	-2.0%[46.1 µM]	/
COc1ccc(Br)c2oc(S)cc(=O)c12
 : 3.1%	-15.4%	0.3%	-5.1%	8.8%	-10.2%	-3.5%	-5.3%
COc1ccc(NC(=O)CSc2nnc(-c3cccnc3)n2C)cc1
 : /	-0.1%	/	/	-1.0%	3.3%	/	10.9%
Cc1cc(C)cc(OCC(=O)NC(C)c2ccccc2)c1 (stereo not given)
 : /	1.0%	?	/	-6.6%	4.1%	-24.7%	-12.9%
Fc1ccc(Nc2ncnc3sc4c(c23)CCC4)cc1F
 : 0.2%	-29.4%	-5.1%&-5.1%	-10.8%	-7.4%	-13.4%	14.0%	-10.0%
O=C(Nc1cccc(C(F)(F)F)c1)Nc1ccc2snnc2c1
 : -1.3%	/	?	-7.7%	/	-26.7%	?	/
Cc1c(C(=O)N2CCCC2)c(S(=O)(=O)N2CCCCC2)c(C)n1C
 : /	5.7%	-3.6%[46.1 µM]	/	2.7%	-2.6%	5.3%[46.1 µM]	0.8%
CCc1ccc(NC(=O)COCc2cc(-c3ccc(F)cc3)on2)cc1
 : 14.4%	/	9.1%[46.1 µM]	-4.3%	/	5.2%	10.0%[46.1 µM]	/
CC(C)(C)OC(=O)N1CCC(c2c(C(=O)NCC3CCN(C4CCCC4)C3)cnn2-c2ccccc2Cl)CC1 (stereo not given)
 : /	-4.9%	/	/	4.8%	-12.2%	/	-24.9%
O=C(NCc1ccco1)C(c1ccccc1)N(CC1CCCO1)C(=O)Cn1nnc2ccccc21 (stereo not given)
 : 29.0%	5.4%	24.2%	0.2%	?	1.6%	15.3%	1.9%
COc1cccc(NS(=O)(=O)c2ccc3[nH]cc(C(=O)N(C)Cc4ccco4)c(=O)c3c2)c1
 : -0.9%&-11.3%	2.7%	-10.6%[46.1 µM]	-5.6%&-1.1%	0.4%	-20.3%	2.0%[46.1 µM]	1.7%
